VACV mCherry inh – qHTS for Stage-Specific Inhibitors of Vaccinia Orthopoxvirus: mCherry Reporter Primary qHTS; 310,000 tested, 0.63% active; Potency, µM (top dose mostly 36.5 µM), for the others: at the top dose activity change, negative = inhibition, actives largely listed as inhibitors; Vaccinia virus mCherry reporter infection, fluorescence; about a quarter of the inactives have no number; AID 720579, 2013; active = well fitted inhibition curve with a large enough effect; inconclusive = small, poorly fitted or top-dose-only effect; inactive = no such curve, though single readings can be large or run the other way; tested in A549 cells; also: nearly all actives have a fitted effect of over 35% in size; inactives centre near -10
VACV Venus inh – qHTS for Stage-Specific Inhibitors of Vaccinia Orthopoxvirus: Venus Reporter Primary qHTS; Vaccinia virus Venus reporter expression, fluorescence; Potency, µM (highest dose often 36.5 µM), for inactives: top-dose activity change, negative = inhibition, most hits filed as inhibitors; 330,000 tested, 0.46% active; AID 720580, 2013; active means well fitted inhibition curve with a large enough effect; inconclusive means small, poorly fitted or top-dose-only effect; inactive means no such curve, though single readings can be large or run the other way; tested in A549 cells; also: nearly all actives have a fitted effect of over 30% in size; inactives centre near -10
Numbers without * were called inactive; i = inactive; ? = inconclusive; / = no result given; [ ] = another dose, or the depositor's remark. % is scaled to controls: 0 for no effect and ±100 for the full control effect; potency is read from the fitted curve at half-maximal effect.

compound,VACV mCherry inh,VACV Venus inh
CCN(CC)S(=O)(=O)c1cccc(C(=O)N[C@H](C(=O)NCc2ccc(Cl)cc2)C(C)C)c1,-6%,-26%
COc1cc(NC(=O)Cn2c(=O)cc(C)c3c(C)nn(-c4ccc(C)cc4)c32)cc(OC)c1,-13%,-7%
COC(=O)c1ccc(-n2c(C)cc(C(=O)COC(=O)CC3Sc4ccccc4NC3=O)c2C)cc1 (configuration not stated),-19%,-10%
O=S1(=O)CC(N2CCN(CC3CC3)CC2)CN1CCc1ccccc1 (configuration not stated),-10%,-19%
CCOc1ccccc1N(C(=O)c1ccco1)C(C(=O)NC1CCCC1)c1cccnc1 (configuration not stated),/,-7%
CCC(=O)OC1(C(C)=O)CCC2C3CCC4=CC(=O)CCC4(C)C3CCC21C (configuration not stated),-16%,-22%
COc1cccc(C#CC2=CC(=O)C[C@H](c3ccc(F)cc3)C2)c1,-5%,-11%
O=C(CNS(=O)(=O)c1ccccc1)Nc1ccc2c(c1)OCO2,-8%,-7%
c1ccc(CCn2nnnc2CN2CCc3ccccc32)cc1,-18%,-13%
Cc1cc(NC(=O)CCC(=O)N(CC(=O)NC2CCCC2)c2ccc(F)c(Cl)c2)no1,-8%,-10%

The last four records of the section above lead into the next:
compound,VACV mCherry inh,VACV Venus inh
COc1cccc(C#CC2=CC(=O)C[C@H](c3ccc(F)cc3)C2)c1,-5%,-11%
O=C(CNS(=O)(=O)c1ccccc1)Nc1ccc2c(c1)OCO2,-8%,-7%
c1ccc(CCn2nnnc2CN2CCc3ccccc32)cc1,-18%,-13%
Cc1cc(NC(=O)CCC(=O)N(CC(=O)NC2CCCC2)c2ccc(F)c(Cl)c2)no1,-8%,-10%
Cc1ccc(C)[n+](CC(=O)N2CCCCC2)c1,i,-7%
COc1ccc(OC)c(S(=O)(=O)n2nnc3ccccc32)c1,?,-25%
CCCCSC(=S)NC1CCS(=O)(=O)C1 (configuration not stated),?,-25%
Cc1ccn2cc(-c3ccc(O)c(O)c3)nc2c1,-10%,-12%
COc1ccc(/C=C/C(=O)CCC(=O)O)cc1,i,1%
CC(OC(=O)CCN=C1NS(=O)(=O)c2ccccc21)C(=O)Nc1ccc(F)c(F)c1F (configuration not stated),-11%,-5%
CC(C)(CO)NCc1ccc(Br)cc1,-2%,-7%
CCCCN1C(=O)c2ccc(C(=O)OCC(=O)NCCc3ccc(S(N)(=O)=O)cc3)cc2C1=O,i,-11%
C[C@@H]1NC(=O)N[C@@H]1CCCCCC(=O)O,-8%,10%
C/C(=N\NC(=O)C1(C)NC(C)(C)Cc2ccccc21)c1ccccc1 (configuration not stated),i,-9%

compound,VACV mCherry inh,VACV Venus inh
OC(c1ccc(F)c(F)c1)c1nc(-c2cncnc2)cs1 (configuration not stated),7%,3%
COc1cc(C#N)c(NC(=S)N2CCN(C(=O)c3ccco3)CC2)cc1OC,i,-4%
COc1ccc2[nH]c(C)c(CCNCc3cn(C)c4ccccc34)c2c1,-13%,-23%
O=C(Cc1ncc(C(F)(F)F)cc1Cl)NCCc1ccccn1,i,-15%
Cn1cnc([N+](=O)[O-])c1S(=O)(=O)Oc1cccc2ccccc12,?,-32%
Cc1cc(C(=O)Nc2c(C)nc3ccccn3c2=O)ccc1[N+](=O)[O-],-14%,-10%
O=[N+]([O-])c1ccc(-n2nnnc2CN2CCCCC2)cc1,i,1%
CCOc1ccc2nc(N/C(N)=N/S(=O)(=O)c3ccc(C)cc3)nc(C)c2c1,-12%,-25%
CC(C)c1ccc(C=NNc2ccc([N+](=O)[O-])cn2)cc1,?,-5%
CCCC(=O)C1=C(O)C(C(=O)OC)C(C)(C)CC1=NCc1ccccc1 (configuration not stated),-13%,-17%

Some of the entries above in another layout.
Values run as follows: VACV mCherry inh	VACV Venus inh
CCCC(=O)C1=C(O)C(C(=O)OC)C(C)(C)CC1=NCc1ccccc1 (configuration not stated)
→ -13%	-17%
CCOc1ccc2nc(N/C(N)=N/S(=O)(=O)c3ccc(C)cc3)nc(C)c2c1
→ -12%	-25%
COc1ccc2[nH]c(C)c(CCNCc3cn(C)c4ccccc34)c2c1
→ -13%	-23%
Cn1cnc([N+](=O)[O-])c1S(=O)(=O)Oc1cccc2ccccc12
→ ?	-32%

Of the compounds above, these have a COOH group.
compound,VACV mCherry inh,VACV Venus inh
COc1ccc(/C=C/C(=O)CCC(=O)O)cc1,i,1%
C[C@@H]1NC(=O)N[C@@H]1CCCCCC(=O)O,-8%,10%

Continued.
compound,VACV mCherry inh,VACV Venus inh
Cc1ccc(CNCCCn2cnc3c(OCc4ccccc4)ncnc32)o1,-3%,-20%
CC1CN(C(=O)Nc2ccc(C(=O)NCc3cccc(F)c3)cc2)c2ccccc2S1 (configuration not stated),-7%,-13%
Cc1c(Cl)cccc1-n1nc(C)c2c(C(=O)NCc3ccccc3)cc(C3CC3)nc21,-14%,-11%
N#CCc1ccnc2ccccc12,-25%,18%
CCCCN(Cc1cc2cc(OC)ccc2[nH]c1=O)C(=O)c1ccccn1,/,?
CCC(C)[C@H](NS(=O)(=O)c1ccc(F)cc1Br)C(=O)OC (some centres not stated),i,-2%
O=[N+]([O-])c1cccc(CN2CCN(S(=O)(=O)Cc3ccccc3)CC2)c1,i,-13%
CC(C)C1(C)NC(c2ccc3c(c2)OCO3)=CC(c2ccccc2O)N1 (configuration not stated),25%,-7%
COc1ccc(-c2cn3nc(N4CCCC(C(=O)Nc5cc(C)cc(C)c5)C4)sc3n2)cc1 (configuration not stated),-12%,-12%
O=c1cc2oc3cc(O)c(O)cc3c(-c3ccccc3[N+](=O)[O-])c-2cc1O,-21%,-11%

compound,VACV mCherry inh,VACV Venus inh
COc1cccc(OCC(=O)NC2CCCCC2)c1,-12%,-7%
NC(=O)c1ccc(NC(=O)COc2coc(CN3CCc4ccccc4C3)cc2=O)cc1,-4%,-7%
Cn1cc(S(=O)(=O)N2CCN(c3ccc(F)cc3)CC2)c(=O)n(C)c1=O,i,-2%
Cc1ccccc1CN(C)CCS(=O)(=O)c1cc(Cl)ccc1Cl,5µM*,?
COc1ccc(S(=O)(=O)N(n2c(C)nnc2-n2nc(C)cc2C)S(=O)(=O)c2ccc(OC)cc2)cc1,i,-7%
Cc1cc(C(=O)CN2C(=O)NC3(CCCc4ccccc43)C2=O)c(C)n1C (configuration not stated),/,-16%
Fc1cccc(Cc2noc(CN3CCSCC3)n2)c1,0%,-10%
CNC(=S)N/N=C/c1cc(Br)cc(Br)c1O,-23%,-19%
CC(=O)N1CCC[C@H]1C(=O)N1CCc2c(cnc(C)c2CNC(=O)/C=C/c2cccs2)C1,-3%,3%
CCCn1c(SC(C(=O)Nc2cc(C)ccc2OC)c2ccccc2)nc2ccccc2c1=O (configuration not stated),-5%,1%

compound,VACV mCherry inh,VACV Venus inh
Cc1cccc[n+]1CC(=O)Nc1ccccc1,-13%,0%
CC(C)(C)c1ccc(CC(=O)N2CCC2(C)C(=O)NCc2cccc3ccccc23)cc1 (configuration not stated),-7%,?
Cc1[nH]c2ccc3ccccc3c2c(=O)c1C/C=C/Cl,?,-21%
NS(=O)(=O)c1ccc(CNC(=O)COc2ccc3c4c(c(=O)oc3c2)CCCC4)cc1,-13%,-5%
CCOC(=O)C1=C2N(C)c3ccccc3N2CCC1=O,/,11%
O=C(CN1C(=O)C2(OCCO2)c2cc(Br)ccc21)NO,-5%,-24%
CN1CCN(C(=O)N(c2ccccc2)c2ccccc2)CC1,-16%,-1%
CC(C)c1ccc(S(=O)(=O)c2cnc(SCC(=O)Nc3ccc(F)cc3F)nc2N)cc1,-1%,1%
CCCC(c1nnnn1C1CCCCC1)N1CCN(C(=O)c2ccco2)CC1 (configuration not stated),-11%,-8%
CC(C)Cn1c(SCc2nnc(-c3cccs3)o2)nc(O)cc1=O,-16%,-12%

compound,VACV mCherry inh,VACV Venus inh
COc1ccc(CNC(=O)Cn2c(=O)c3cccn3c3ccccc32)cc1,-29%,?
CCCCc1ccc(Nc2ncnc3c2cnn3-c2ccc(C)cc2)cc1,-8%,-5%
CC(=O)Nc1ccc(N(C(=O)CNC(=O)c2cccs2)C(C(=O)NCC2CCCO2)c2ccccc2)cc1 (configuration not stated),i,-7%
CC(C)C[C@H](NC(=O)OC(C)(C)C)C(=O)N/N=C/c1ccc2nccnc2c1,-15%,-10%
C=CCNc1nc(C(=O)OCC(=O)NCc2ccccc2OC)cs1,i,-10%
COc1ccc(S(=O)(=O)N2CCOCC2)cc1NC(=O)CSc1nnc(N)s1,-15%,-14%
COCCCNC(=O)/C(C#N)=C/c1c(N2CCN(c3ccccc3)CC2)nc2ccccn2c1=O,-17%,0%
Cc1ccc(NC(=O)/C=C/c2ccco2)nc1,?,?
Cc1cc(C)c2nc3sc(=Cc4ccc(-c5ccccc5C(=O)O)o4)c(=O)n3c2c1,i,3%
O=C(CSc1nc2nc(-c3cccs3)cc(C(F)(F)F)c2c(=O)[nH]1)NCc1ccco1,/,-10%

compound,VACV mCherry inh,VACV Venus inh
O=C(CSc1cn(CC(=O)N2CCOCC2)c2ccccc12)Nc1ccccc1C(F)(F)F,-12%,-3%
Cc1cc(C)n(-c2nc(NCCN(C)C)c3c4c(sc3n2)COC(C)(C)C4)n1,-2%,-24%
COc1ccc(CCC(=O)O)cc1OC,-8%,-11%
Cc1cc(-c2nnc(CCC(=O)NC(C)c3cccc4ccccc34)o2)no1 (configuration not stated),4%,3%
COc1ccc(C(=O)Cn2c(=O)c(-c3cc(C)ccc3NC(C)=O)nc3ccccc32)cc1,-12%,-8%
COC1CCCN(C(=O)c2ccc3oc(Cc4ccc(Cl)cc4)nc3c2)C1 (configuration not stated),0%,-7%
COc1ccc(CCC(=O)OCc2csc(CC(=O)Nc3ccc(C)cc3)n2)cc1OC,-12%,-7%
Cc1ccc(CNC(=O)CSc2nnc(CNC(=O)c3ccccc3)o2)cc1,-12%,-18%
Cc1cccc(C(C(=O)NC2CCCC2)N(Cc2cccnc2)C(=O)c2csnn2)c1 (configuration not stated),-13%,18%
COc1ccc(S(=O)(=O)Cc2ccc(C(=O)N3CCN(c4ncccn4)CC3)o2)cc1,11%,0%

compound,VACV mCherry inh,VACV Venus inh
CC(C)(C)c1ccccc1N=Cc1ccc2ccccc2n1,/,-16%
CCC1CCCCN1C(=O)CSc1nc2c([nH]c3ccccc32)c(=O)n1-c1cccc(OC)c1 (configuration not stated),?,-28%
COc1cc2c(cc1OC)C(COc1ccc(F)cc1)N(C(=O)c1ccc(S(=O)(=O)N3CCCC3)cc1)CC2 (configuration not stated),-1%,-3%
COc1c(S(=O)(=O)N2CCCC2)ccc(Cl)c1Cl,/,-23%
COc1ccccc1N1CCN(CCCCN2C(=O)C3CCCN3C2=O)CC1 (configuration not stated),?,-8%
Cc1ccc(C)c(N2CCN(c3ncccc3[N+](=O)[O-])CC2)c1,-7%,-25%
Cc1cccc(OCc2nnc(SCC(=O)N3CCN(c4ccccc4)CC3)o2)c1C,-3%,-12%
COc1cc(/C=C/c2cncc(/C=C/c3cc(OC)c(OC)c(OC)c3)c2)cc(OC)c1OC,-20%,-5%
COc1ccc(OCC(=O)Nc2ccc3c(c2)nc(CN2CCN(C(C)=O)CC2)n3C)cc1,-14%,-8%
CCOc1ccc(C(=O)OCC(=O)Nc2ccc(SC(F)F)cc2)cc1OCC,-12%,-25%

compound,VACV mCherry inh,VACV Venus inh
OCCOCCn1c(CCNc2nc(-c3ccc(Cl)cc3)cs2)nc2cc(Cl)c(Cl)cc21,-5%,-4%
CCOC(=O)CNC(=O)C1CCCc2c1[nH]c1ccc(Cl)cc21 (configuration not stated),0%,-20%
COc1ccc(S(=O)(=O)NC(=O)C2(C)CCN2C(=O)Cc2cc(C)cc(C)c2)cc1 (configuration not stated),32%[activator],-7%
CCCn1c(=O)c2sccc2n2c(CCCC(=O)N3CCN(c4cccc(C)c4C)CC3)nnc12,-26%,-22%
Cc1noc(C)c1C(=O)Nc1nc(-c2ccccc2Cl)cs1,-2%,-11%
CCCC[C@@H]1C[C@H]1[C@@H](NC(=O)c1ccccc1)c1ccccc1C(F)(F)F,?,-14%
Cc1ccc2nsnc2c1S(=O)(=O)N1CCCC1,/,?
Cc1ccccc1COn1nnc2ccc(S(=O)(=O)N3CCOCC3)cc21,4.5µM*,7.9µM*
CCOc1ccc(NC(=S)NN(C)C(=S)Nc2ccc(OCC)cc2)cc1,-20%,-14%
COc1ccc(OC)c(C2C(C(C)=O)=C(O)C(=O)N2CCC(=O)O)c1 (configuration not stated),-11%,-3%
COc1ccc(CCNC(=O)CCNC(=O)c2ccccc2Cl)cc1,-14%,-10%
O=C(Nc1ccc2nc(SCC(=O)N3CCOCC3)sc2c1)c1ccccc1Cl,-20%,-26%
CCOC(=O)[C@H]1[C@H]2COc3ccc(Cl)cc3[C@@H]2N2C(=O)c3cc(OC)ccc3NC(=O)[C@@]12C,-19%,?
